# Source: PubChem BioAssay
# PV pol inh = poliovirus RdRp elongation inhibitors, primary screen, biochemical, fluorescence polarization, total intensity; Genome polyprotein (Poliovirus type 1 (strain Mahoney)), P03300; poliovirus polymerase elongation; stronger effect = lower value; % elongation, % (compound at 16.7 µg/mL); hit rate 0.66% among 150,000; AID 588519, 2011; in the data active = % elongation below about 90%; also: some results filed as inactive read as strong as hits
# MenB inh = M. tuberculosis MenB inhibitors, primary screen, biochemical, absorbance. MenB enzyme assay, absorbance read-out; some hits fall short of the stated cut. inhibition, %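 (about 12 µg/mL by stock and volumes)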. hit rate 0.43% among 100,000;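 active = mean of two replicates above 30%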;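 also: 0% = no compound and 100% = wells with inactive enzyme; the first replicate is given; strong numbers were not always called active; inactives centre near -10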
# Target sequence (P9WNP5 whole entry, looked up): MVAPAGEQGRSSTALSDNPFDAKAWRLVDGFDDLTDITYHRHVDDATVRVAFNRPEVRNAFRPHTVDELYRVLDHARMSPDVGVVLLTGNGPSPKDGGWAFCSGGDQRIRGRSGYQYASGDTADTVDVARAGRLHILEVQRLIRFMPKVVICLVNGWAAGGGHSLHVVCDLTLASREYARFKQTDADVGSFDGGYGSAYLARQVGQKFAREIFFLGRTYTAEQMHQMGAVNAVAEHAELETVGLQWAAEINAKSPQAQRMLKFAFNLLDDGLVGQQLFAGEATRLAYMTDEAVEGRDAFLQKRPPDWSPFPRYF
# Mtb MbtI inh = MbtI salicylate synthase inhibitors, primary screen, biochemical, fluorescence intensity | P9WFX0 | purified MbtI enzyme, fluorescence intensity read-out | inhibition, %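 (about 17 µg/mL by stock and volumes)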 | hit rate 0.89% among 100,000 | AID 493033, 2011;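 active = above 50% in both replicates, above 80% if mildly self-fluorescent; inactive = the rest, strongly fluorescent compounds included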;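 also: 0% = mean of negative and 100% = mean of positive controls; one replicate is shown; some compounds called inactive have numbers as strong as hits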
# Target sequence (P9WFX0 whole entry, looked up): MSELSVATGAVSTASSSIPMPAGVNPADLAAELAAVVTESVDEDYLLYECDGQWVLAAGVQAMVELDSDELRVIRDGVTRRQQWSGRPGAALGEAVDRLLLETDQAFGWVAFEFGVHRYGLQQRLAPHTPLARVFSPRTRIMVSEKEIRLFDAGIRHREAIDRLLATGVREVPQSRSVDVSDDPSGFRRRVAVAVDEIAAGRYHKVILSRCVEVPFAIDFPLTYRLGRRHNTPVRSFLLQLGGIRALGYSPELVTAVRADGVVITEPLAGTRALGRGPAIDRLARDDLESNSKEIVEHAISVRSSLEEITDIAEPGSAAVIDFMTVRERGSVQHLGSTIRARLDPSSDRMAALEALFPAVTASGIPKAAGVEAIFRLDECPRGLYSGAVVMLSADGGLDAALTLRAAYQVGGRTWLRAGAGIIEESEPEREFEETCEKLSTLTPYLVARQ
# PV pol inh intensity = recorded beside PV pol inh, whose call it bears; % elongation; measured here: total intensity read-out; formula for this scale not given here;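 total fluorescence in place of polarization; lower means less elongation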
# An asterisk follows results filed as active; · = no result given; & = joins results of further samples.
# Abbreviations – A = PV pol inh; B = PV pol inh intensity; C = MenB inh; D = Mtb MbtI inh
COc1ccc(-c2noc(CN3CCC(C(=O)NCCC4=CCCCC4)CC3)n2)cc1OC
  A = 102	B = 103	C = -2	D = -14
O=C(Nc1ccc(S(=O)(=O)N2CCCCCC2)cc1)C1CC(=O)N(c2ccccc2)C1 (configuration not stated)
  A = 105	B = 101	C = -44	D = -9
CCOC(=O)c1ccc2c(c1)nc(C(C)O)n2CC(=O)Nc1ccc(N(CC)C(C)C)cc1 (configuration not stated)
  A = 96	B = 93	C = -11	D = 13
COc1ccc(C2C(C#N)=C(N)N(c3ccccc3)C3=C2C(=O)CC(C)(C)C3)cc1OC (configuration not stated)
  A = 101	B = 101	C = 1	D = 5
Cc1oc(-c2cc(Cl)ccc2Cl)cc1-c1nn2c(C)nnc2s1
  A = 104	B = 106	C = -11	D = 1
Cc1ccc(NC(=O)Cn2nc(C(N)=O)c3ccccc3c2=O)cc1
  A = 102	B = 95	C = -24	D = 9
[O-][n+]1onc2cc(Cl)ccc21
  A = 97	B = 97	C = -80	D = 13
Cn1nc(C(=O)N2CCCN(Cc3ccccc3Cl)C2)c2c1-c1ccccc1OC2
  A = 102	B = 100	C = -12	D = -6
CC1CCc2c(sc3nc(SCC(=O)Nc4c[nH]c(=O)[nH]c4=O)[nH]c(=O)c23)C1 (configuration not stated)
  A = 99	B = 99	C = 5	D = -9
Cc1cc(C)c(-n2c(O)c(C=Nc3cccc(O)c3)c(=O)[nH]c2=O)c(C)c1
  A = 104	B = 110	C = 3	D = 33
O=C1c2ccccc2C(=O)N1/N=C/c1cn(-c2ccccc2)nc1-c1cc2ccccc2o1
  A = 104	B = 103	C = -28	D = -7
Cc1cccc(C)c1N1CCc2cn[nH]c21
  A = 97	B = 86	C = -13	D = ·
COC(=O)c1c(NC(=O)C(C)Oc2ccccc2)sc2c1-c1ccccc1CC2 (configuration not stated)
  A = 102	B = 97	C = -29	D = 5
O=C(C1COc2ccccc2O1)N1CCc2ccccc2C1 (configuration not stated)
  A = 101	B = 106	C = -15	D = ·
CCN(CC)C(=O)Cn1cc(SCC(=O)N2CCCCC2)c2ccccc21
  A = 102	B = 99	C = 6	D = 2
CN(C)c1ccc(C(N2CCOCC2)P(=O)(c2ccccc2)c2ccccc2)cc1 (configuration not stated)
  A = 103	B = 103	C = -25	D = ·
OC1(c2ccc(-c3ccccc3)cc2)COc2ccccc2O1 (configuration not stated)
  A = 101	B = 96	C = ·	D = -12
CCC(C)NC(=O)C1c2ccccc2C(=O)N2CCc3ccccc3C12 (configuration not stated)
  A = 101	B = 99	C = -23	D = -10
COC(=O)c1ccc(CN2CCCC(c3nc4ccccc4[nH]3)C2)o1 (configuration not stated)
  A = 104	B = 114	C = -10	D = -10
COC(=O)C1=NC=CN2CCS(=O)(=O)N=C12
  A = ·	B = ·	C = -29	D = 18
Cc1ccccc1NC(=O)Cc1nc(CSc2nnnn2C)cs1
  A = 106	B = 109	C = -8	D = 24
CCOC(=O)Cn1c(=O)oc2cc(S(=O)(=O)N(C)CCC#N)ccc21
  A = 102	B = 106	C = -3	D = -10
O=C1c2cccc3cccc(c23)N1Cc1ccc(F)cc1Cl
  A = 100	B = 100	C = -23	D = 10
CCC1CN(C(=O)Nc2ccccc2)c2ccccc2O1 (configuration not stated)
  A = 100	B = 102	C = 12	D = -9
CCOc1ccc(NS(=O)(=O)c2ccc3[nH]cc(C(=O)NC(C)CC)c(=O)c3c2)cc1 (configuration not stated)
  A = 100	B = 103	C = -21	D = 7
COC(=O)c1c(NC(NC(C)=O)(C(F)(F)F)C(F)(F)F)sc2c1CCN(C)C2
  A = 107	B = 116	C = -12	D = ·
COc1ccc(NC(=O)C2CCCCC2)cc1OC1CCCC1
  A = 102	B = 111	C = -7	D = -10
O=C(Nc1ccc(S(=O)(=O)Nc2ccccc2)cc1)N1CCCC1
  A = 108&101	B = 116&106	C = -25	D = -15
CCn1c(=O)c2cc(C(=O)NCC3CCCO3)sc2c2ccccc21 (configuration not stated)
  A = 100	B = 101	C = -5	D = -3
Cc1nc2sccn2c(=O)c1S(=O)(=O)N1CCC(Cc2ccccc2)CC1
  A = 100	B = 103	C = -9	D = -41
O=C(CNc1ccccc1)N/N=C/c1ccc(F)cc1
  A = 104	B = 101	C = -11	D = -2
Nc1nn(S(=O)(=O)c2ccc(Br)cc2)cc1-c1ccccc1
  A = 101	B = 104	C = -32	D = -9
O=C(/C=C/C(=O)Nc1cccc(O)c1)Nc1cccc(O)c1
  A = 98	B = 103	C = -80	D = -4
O=S(=O)(Nc1cc(Sc2cccc3cccnc23)c(O)c2ccccc12)c1ccc(Cl)cc1
  A = 100	B = 106	C = -17	D = 57
NC(=O)C1(N2CCCCC2)CCN(C2CC(=O)N(CCc3ccccc3)C2=O)CC1 (configuration not stated)
  A = 99	B = 102	C = -20	D = 5
NC(=O)COC(=O)c1cccnc1SCC(=O)Nc1ccccc1OC(F)F
  A = 105	B = 104	C = -37	D = -9
Cc1c(C(=O)NN=Cc2ccc(-c3ccc(Cl)c(C(=O)O)c3)o2)sc(N)c1C#N
  A = 100	B = 98	C = -47	D = 7
CCCNC(=O)c1ccc(-n2c(C)cc3c2CCCC3)cc1
  A = 104	B = 105	C = 11	D = 4
COc1ccc(NCc2nnc3n2CCCCC3)cc1
  A = 104	B = 110	C = -11	D = -8
O=C(O)CCN1C(=O)NC2(CCCCC2)C1=O
  A = 90	B = 101	C = 5	D = 0
COCC(C)NC(=O)Cn1nc(C)c(NC(=O)c2cc(-c3ccc(OC)c(OC)c3)no2)c1C (configuration not stated)
  A = 103	B = 101	C = -4	D = -10
Cn1c(=O)c2c(nc(SCc3ccc(F)cc3)n2C)n(C)c1=O
  A = 99	B = 95	C = -4	D = ·
O=C(O)CCCC(=O)c1c[nH]c2ccccc12
  A = 106	B = 112	C = -8	D = ·
Cc1cc2c(cc1N)OCCO2
  A = 108	B = 100	C = -67	D = 3
COc1ccc(OCC(=O)NC2Sc3c(OC)ccc(OC)c3N2C)cc1 (configuration not stated)
  A = 101	B = 100	C = 13	D = 0
Cc1ccc(-c2noc(C3CCCN(S(=O)(=O)c4ccc5c(c4)OCCO5)C3)n2)cc1 (configuration not stated)
  A = 101	B = 102	C = -3	D = -2
N#CC(C#N)=CNc1cccc(NC(=O)c2cccc(Cl)c2)n1
  A = 102	B = 102	C = -3	D = -7
NN=C1c2ccccc2-c2ccccc21
  A = 101	B = 101	C = -30	D = 18
Cc1cccc(C(=O)OCC(=O)N2CCCc3ccccc32)c1
  A = 98	B = 99	C = -14	D = -3
CN(Cc1nc(-c2ccccc2)no1)C(=O)C1CCCCC1
  A = 102	B = 99	C = -5	D = -6

# New compounds follow:
# Abbreviations – A = PV pol inh; B = PV pol inh intensity; C = MenB inh; D = Mtb MbtI inh
Cc1cc(NC(=O)Nc2ccccc2)n(-c2ccccc2)n1
  A = 105	B = 100	C = 4	D = 0
Cc1cccc2cc(C#N)c(NCCCNS(=O)(=O)c3ccccc3)nc12
  A = 101	B = 99	C = -74	D = 7
C/C(=N\c1nnc(Sc2nc3cc(Cl)ccc3s2)s1)N(C)C
  A = 98	B = 105	C = -17	D = 0
O=c1cc(-c2ccccc2)[nH]c2nc3ccccc3n12
  A = 99	B = 100	C = -12	D = 68
Cc1nnc(SCC(=O)NCCc2ccccc2)[nH]c1=O
  A = 102	B = 100	C = -17	D = 10
CCc1ccccc1N(CC(=O)N1CCC(Cc2ccccc2)CC1)S(C)(=O)=O
  A = 102	B = 91	C = -25	D = 11
O=C(Oc1coc(CSc2nnc(NC(=O)C3CC3)s2)cc1=O)c1cccs1
  A = 101	B = 104	C = -17	D = 10
O=C(COC(=O)C1CC1)Nc1ccc(I)cc1
  A = 101	B = 104	C = ·	D = -3
Cn1c(CNC2CCCCC2)c(C#N)c2ccccc21
  A = 103	B = 103	C = -63	D = -4
Cc1ccc(-c2cc(-c3ccc4c(c3)OCO4)c(C#N)c(N)n2)cc1
  A = 103	B = 100	C = -13	D = 88
COc1ccc(CC(C(=O)O)N2C(=O)c3ccccc3C2=O)cc1 (configuration not stated)
  A = 102	B = 102	C = -16	D = -21
N#C/C(=C\c1cn[nH]c1-c1cccc(Br)c1)C(=O)O
  A = 94	B = 97	C = 4	D = -27
O=C(Cn1c(=O)oc2ccccc21)N1CCc2ccccc21
  A = 102	B = 102	C = 3	D = -21
COc1ccc(-c2cn3c4ccccc4n(N)c3n2)cc1OC
  A = 104	B = 108	C = -24	D = 28
CC1(C)C(C(=O)Nc2ccccc2C(F)(F)F)C1(C)C
  A = 103	B = 100	C = 0	D = ·
CC(=O)N1CCN(C(=O)c2sccc2-c2ccccc2)CC1
  A = ·	B = ·	C = -4	D = -7
CC(C)c1ccc(NC(=O)c2cc(F)cc3c2OCOC3)cc1
  A = 104	B = 110	C = -5	D = 7
Cc1ccc2cc(CN(Cc3ccccc3)S(C)(=O)=O)c(=O)[nH]c2c1
  A = 103	B = 101	C = -30	D = 23
O=S(=O)(NCCSc1ccccc1)c1ccc2c(c1)OCCO2
  A = 106	B = 107	C = -13	D = 8
COc1ccccc1N(Cc1cc2ccccc2[nH]c1=O)C(=O)C(C)(C)C
  A = 104	B = 101	C = -44	D = 13
CC(C)N(Cc1nnc(-c2ccc(Cl)cc2)o1)C(=O)C1COc2ccccc2O1 (configuration not stated)
  A = 103	B = 89	C = -28	D = -20
O=C(Cn1c(=O)oc2ccccc21)NC1CCN(Cc2ccccc2)CC1
  A = 100	B = 102	C = 3	D = -17
CCCN(CCC)S(=O)(=O)c1ccc2c(c1)CCN2C(=O)CC
  A = 101	B = 104	C = 12	D = -2
CC1SC2(C(=O)Nc3ccccc32)N(c2ccccc2)C1=O (configuration not stated)
  A = 102	B = 102	C = -37	D = -4
CC1(NCC(=O)N2CCN(S(=O)(=O)c3ccc4ccccc4c3)CC2)CCS(=O)(=O)C1 (configuration not stated)
  A = 101	B = 108	C = -12	D = 30
O=C(NCc1cccc2ccccc12)C12CC3CC(CC(C3)C1)C2
  A = 105	B = 106	C = 8	D = ·
N#CC1(c2ccccc2)CCCN1C(=O)c1ccc(Br)o1 (configuration not stated)
  A = 108	B = 112	C = -27	D = ·
C#CCOC(=O)Nc1ccc(OCC(F)(F)F)nc1
  A = 101	B = 99	C = -8	D = -3
CCC1CCC(=NNC(=O)CNc2ccc(OC)cc2)CC1 (configuration not stated)
  A = 100	B = 101	C = -32	D = 8
CCOC(=O)N1CCc2[nH]c3ccccc3c2C1
  A = 87	B = 125	C = -33	D = ·
Cn1c(C(C#N)C(=O)Cc2c(F)cccc2Cl)nc2ccccc21 (configuration not stated)
  A = 97	B = 98	C = -12	D = 59
C=CC(=O)Nc1ccc(-c2nc3ccc(NC(=O)C=C)cc3[nH]2)cc1
  A = 103	B = 89	C = -28	D = -5
O=c1c2ccccc2nc(CNc2ccccc2)n1-c1ccccc1
  A = 102	B = 98	C = -10	D = 16
CC(NC(=O)c1ccccc1)c1n[nH]c(=S)n1C (configuration not stated)
  A = 102	B = 101	C = 14	D = 11
c1ccc(-c2nnn3c2nc(N2CCCC2)c2ccccc23)cc1
  A = 102	B = 103	C = 2	D = 4
Cc1ccc(/C=C2/Sc3ccc(C(=O)N4CCN(c5ccccc5F)CC4)cc3NC2=O)cc1
  A = 99	B = 94	C = -11	D = 5
Cc1ccc2c(COC(=O)c3nc(-c4ccccc4)oc3C)cc(=O)oc2c1
  A = 110	B = 114	C = 10	D = -3
O=c1[nH]c2cc3c(cc2cc1CN(CCO)C(=S)Nc1cccc(Cl)c1)OCO3
  A = 101	B = 100	C = -4	D = 49
